# CtBP-E1A inh: qHTS Assay for Inhibitors of the CtBP/E1A Interaction; activity change, % (no concentration beside the values); actives 0.49% (n = 340,000); CtBP / adenovirus E1A interaction (AlphaScreen); AlphaScreen GST-E1A/His-CtBP binding, 1536-well; active compounds read low; control for the full effect not named in the record; in the data active means activity change below about -65%; inconclusive means about -30% to -65%; inactive means above about -30%; note: % is set by controls: 0 for no effect and ±100 for the full control effect
#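 Steps: dispense buffer (Tris pH 8.0, NaCl 300 mM, TCEP 1 mM, BSA, Tween 20); add 5X protein mix (GST-E1A, His-CtBP, 125 nM each); pin 23 nL compound; 2 h at 37 °C, dark; add 5X beads (50 ug/mL); 1 h; read.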
# TRPV1 PAM: HTS Assay for Compounds that Act as Potentiators of the Vanilloid Receptor 1. potentiation, % at 8.33 µM. TRPV1-expressing cells, Fluo-8 calcium influx, capsaicin EC20 potentiation; host cell line not named in the record; control for the full effect not named in the record. actives 0.02% (n = 320,000). Transient receptor potential cation channel subfamily V member 1 (Homo sapiens), Q8NER1. AID 540277, 2011; active means potentiation above 80%; inconclusive means 30% to 80%; inactive means below 30%; note: 0% is about no effect
# Target sequence (Q8NER1 whole entry, looked up): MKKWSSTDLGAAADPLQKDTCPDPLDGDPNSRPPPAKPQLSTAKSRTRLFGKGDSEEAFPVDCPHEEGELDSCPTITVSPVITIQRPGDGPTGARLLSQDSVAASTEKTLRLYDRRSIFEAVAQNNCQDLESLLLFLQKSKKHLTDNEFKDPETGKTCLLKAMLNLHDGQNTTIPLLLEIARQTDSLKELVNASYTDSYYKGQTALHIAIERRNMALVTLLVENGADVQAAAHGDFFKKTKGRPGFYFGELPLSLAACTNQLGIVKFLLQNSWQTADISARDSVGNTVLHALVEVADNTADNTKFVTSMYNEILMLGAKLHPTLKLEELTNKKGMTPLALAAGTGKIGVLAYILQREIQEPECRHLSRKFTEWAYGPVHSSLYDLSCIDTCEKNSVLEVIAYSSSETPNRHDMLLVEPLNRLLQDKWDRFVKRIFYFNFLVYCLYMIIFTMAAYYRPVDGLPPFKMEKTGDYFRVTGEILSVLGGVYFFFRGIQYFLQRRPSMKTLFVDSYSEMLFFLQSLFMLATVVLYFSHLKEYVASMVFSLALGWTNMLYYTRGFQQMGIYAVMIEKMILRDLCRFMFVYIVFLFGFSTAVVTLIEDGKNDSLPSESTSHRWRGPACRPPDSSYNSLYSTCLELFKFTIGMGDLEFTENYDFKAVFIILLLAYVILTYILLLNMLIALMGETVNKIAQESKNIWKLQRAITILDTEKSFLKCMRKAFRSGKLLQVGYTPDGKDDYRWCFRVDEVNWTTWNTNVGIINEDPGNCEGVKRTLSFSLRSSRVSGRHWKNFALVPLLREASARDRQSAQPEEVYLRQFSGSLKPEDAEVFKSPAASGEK
#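 TRPV1-expressing cells were cultured overnight at 35.5C and loaded with Fluo-8 calcium dye for 40 to 90 min at room temperature. After a 10 s baseline, compound was added and calcium influx was read kinetically for 3 min (ex 480/em 520 nm).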
# Sfp inh: qHTS Assay for Inhibitors of Bacillus subtilis Sfp phosphopantetheinyl transferase (PPTase); Potency, µM, without a hit: max response, negative = inhibition, most hits filed as inhibitors; actives 3.5% (n = 310,000); AID 1490, 2009; Biochemical Sfp PPTase activity, qHTS; active = well fitted inhibition curve with a large enough effect; inconclusive = small, poorly fitted or top-dose-only effect, or another doubt; inactive = no such curve, though single readings can be large or run the other way;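 note: the enzyme is Sfp with the accession as filed and its product quenches rhodamine fluorescence; potency is the fitted concentration of half-maximal effect; 0% = enzyme reaction without inhibitor and -100% = no enzyme wells; top concentration of the series not given in the record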
#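 Fluorescence-quenching assay: 15 nM Sfp-PPTase preincubated 15 min at room temperature with compound, then 5 uM rhodamine-CoA and 12.5 uM BHQ-2-labelled YbbR peptide added. Fluorescence (ex 525/em 598 nm) read at start and after 30 min; difference gives rate.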
# gsp antag: qHTS for Antagonists of gsp, the Etiologic Mutation Responsible for Fibrous Dysplasia/McCune-Albright Syndrome: qHTS. gsp-mutant cells, cAMP HTRF, 30 min; control for the full effect not named in the record. actives 0.4% (n = 340,000). Potency, µM (doses to about 76.9 µM), without a hit: at the top dose activity change, negative = inhibition, usual class: inhibitors. AID 624288, 2012; active = falling curve of any shape with a large fitted effect; inconclusive = falling curve, mostly with a smaller effect; inactive = flat or rising curve; cell line not stated here;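 note: intracellular cAMP measured with PDE inhibitor Ro 20-1724 present during compound exposure; potency is the fitted concentration of half-maximal effect; % is set by controls: 0 for no effect and ±100 for the full control effect; nearly all actives have a fitted effect of over 65% in size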
#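 Cells in G418 medium, seeded 16-24 h, 37C; buffer exchange to DPBS + 1 mM CaCl2, 0.5 mM MgCl2, 0.05% BSA; cpds in DMSO + […] (300 uM stock), 30 min 37C; HTRF cAMP detection.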
# Menin-MLL FL inh: qHTS Assay for Inhibitors Targeting the Menin-MLL Interaction in MLL Related Leukemias: Competition With Fluorescein Labeled MLL-derived Peptide | Fluorescence polarization, fluorescein-MLL peptide displacement from menin | FP activity change, % at 61.4 µM | 290,000 tested, under 10 active | AID 1766, 2009; inconclusive = falling polarisation curve, or a change in total fluorescence; inactive = total fluorescence flat and polarisation flat or rising; no compound was filed as active; the % refers to the polarisation; negative = inhibition;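 note: % of control where 0% means no effect; inhibitors lower the polarisation; unlabelled MLL peptide was the positive control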
# gsp ag: qHTS for Agonist of gsp, the Etiologic Mutation Responsible for Fibrous Dysplasia/McCune-Albright Syndrome: qHTS; gsp mutant cells, cAMP HTRF, 30 min; control for the full effect not named in the record; actives 0.13% (n = 340,000); Potency, µM (doses to about 76.9 µM), for the others: at the highest dose activation (cAMP increase), usual class: activators; AID 624287, 2012; active = well fitted activation curve with a large enough effect; inconclusive = small, poorly fitted or top-dose-only effect, or another doubt; inactive = no such curve, though single readings can be large or run the other way; cell line not stated here;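 note: phosphodiesterase inhibitor Ro 20-1724 added with compounds to block cAMP breakdown; potency is the fitted concentration of half-maximal effect; nearly all actives have a fitted effect of over 60% in size; about a fifth of the inactives were tested at one dose only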
#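 Cells in DMEM/10% FBS with G418 were pretreated with compounds in DMSO plus […] (300 uM stock) for 30 min at 37C. cAMP was measured by HTRF (cAMP-d2 plus anti-cAMP antibody-K) after 30 min at room temperature.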
# ClpP mod: qHTS Assay for Activators of ClpP; ATP-dependent Clp protease proteolytic subunit (Bacillus subtilis (strain 168)), P80244; purified B. subtilis ClpP, FRET peptide cleavage, 20 min; Potency, µM (titrated, usually from 57.5 µM), for the others: at the top dose activity change, negative = active; actives 1.9% (n = 340,000); active = well fitted falling curve with a large enough effect; inconclusive = small, poorly fitted or top-dose-only effect; inactive = no such curve, though single readings can be large or run the other way; note: potency is the fitted concentration of half-maximal effect; the source files actives as falling curves though it sought activators and does not explain the sign; nearly all actives have a fitted effect of over 65% in size; many hits overshoot -100%
# Target sequence (P80244 whole entry, looked up): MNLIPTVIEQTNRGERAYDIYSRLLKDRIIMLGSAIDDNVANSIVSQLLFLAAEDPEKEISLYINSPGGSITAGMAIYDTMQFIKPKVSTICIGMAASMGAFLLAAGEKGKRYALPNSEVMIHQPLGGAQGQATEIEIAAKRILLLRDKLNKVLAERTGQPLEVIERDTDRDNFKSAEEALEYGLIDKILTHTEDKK
#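 FRET quenching reversal measured ClpP activation: 10 microg/mL B. subtilis ClpP at pH 8 with the FRET-FV decapeptide, read at 430 nm after 320 nm excitation. The 20-min minus 0-min signal was scaled between DMSO/no-enzyme wells and ADEP (5.8 microM final).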
# An asterisk follows results filed as active; ? = inconclusive; · = not tested or not shown; & = joins results of further samples; [ ] = dose if it differs, or a comment.
# Sample of the layout:
SMILES,CtBP-E1A inh,TRPV1 PAM,Sfp inh,gsp antag,Menin-MLL FL inh,gsp ag,ClpP mod
COc1ccccc1C(=O)N=C1SC2CS(=O)(=O)CC2N1c1ccccc1 (stereo not drawn),10,-6,-3%,0%,-3.9,10%[15.4 µM],·
COc1cc(CN(C)C(=O)C(=O)c2c[nH]c3ccccc23)ccc1O,0,·,·,-6%,·,-18%,-10%

# All compounds of this part, previewed entries included:
SMILES,CtBP-E1A inh,TRPV1 PAM,Sfp inh,gsp antag,Menin-MLL FL inh,gsp ag,ClpP mod
COc1ccccc1C(=O)N=C1SC2CS(=O)(=O)CC2N1c1ccccc1 (stereo not drawn),10,-6,-3%,0%,-3.9,10%[15.4 µM],·
COc1cc(CN(C)C(=O)C(=O)c2c[nH]c3ccccc23)ccc1O,0,·,·,-6%,·,-18%,-10%
CCOc1ccc(N/C=C/C(=O)c2ccccc2)cc1,3,-10,-1%,8%,-1.7,-51%,·
COc1ccc(NC(=O)CSc2nc(C)cs2)cc1,3,-13,8%,6%,3.9,1%,·
CC(C)(C)NC(=O)NC(=O)COC(=O)c1ccc2c(c1)S(=O)(=O)N=C1CCCCCN12,-8,-5,-8%,-5%,4.1,-16%,0.1%
c1coc(CNc2ncnc3sc4c(c23)CCCCC4)c1,5,6,-16%,-23%,-1.8,-5%,-0.6%
CC1(C)CC(=O)C2=C(C1)OC(N)=C([N+](=O)[O-])C2c1cccs1 (stereo not drawn),0,7,12%,12%,1.4,13%,0.7%
CCc1nc(NCCCCCO)c2nnn(Cc3ccccc3F)c2n1,-2,26,11%,12%,1.4,0%,1.2%
Cc1nc2cc(O)ccc2n1C,-2,-8,0%,5%,-1.3,-32%[inhibitor],-1.3%
Cc1ccc(CCNc2ccccc2)c[n+]1[O-],0,-13,-6%,6%,0.4,-10%,-5.7%
Cc1ccc(NC(=O)CSc2ccccc2)cc1S(=O)(=O)N1CCCCC1,-2,4,·,-5%,·,-10%,-2.2%
CN(C(=O)CSc1nnc(-c2ccc(C(C)(C)C)cc2)n1C)C1CCS(=O)(=O)C1 (stereo not drawn),1,-2,·,1%,·,-75%[inhibitor],1.4%
COc1ccc(-c2c3c(=O)n(C)c(=O)n(C)c3cn2N2CCOCC2)cc1,-6,-3,15%,-2%,9.2,-32%,-15%
O=S(=O)(Nc1cc(S(=O)(=O)N2CCOCC2)ccc1NCC1CCCO1)c1ccccc1F (stereo not drawn),10,-1,·,-8%,·,15%,1.0%
COCc1cc(=O)n2[nH]cc(-c3ccsc3)c2n1,5,3,-4%,?,-3.3,-6%[15.4 µM],-0.2%
O=C1C2C(c3ccccc3)CC=CC2[C@H](c2ccoc2)N1Cc1ccccc1 (stereo partly drawn),-23,-8,-3%,-23%,-1.3,·,-4.4%
COc1ccc(-c2n[nH]c(=S)n2-c2ccc(C)cc2C)cc1,·,12,-4%,-13%,-0.2,4%,-30%
CCOc1cc(N2CCOCC2)c(OCC)cc1NC(=O)[C@H](C)N1C(=O)C2CC=CCC2C1=O (stereo partly drawn),-2,-6,18%,-2%,-0.8,-5%[15.4 µM],·
Nc1ccc(CCc2ccccn2)cc1,0,·,·,2%,·,0%,·
COc1ccc(C2N(c3cc(Cl)ccc3OC)C(=O)C3CCCN32)cc1 (stereo not drawn),5,·,-21%,-1%,3.9,-63%[inhibitor],1.4%
CCOC(=O)c1cnc2c(Cl)cccc2c1NCCN1CCOCC1,-14,-22,26%,17%,3.1,-12%[15.4 µM],-1.8%&1.6%
NC(=S)n1[nH]c(-c2ccc([N+](=O)[O-])cc2)c(N=Nc2ccccc2[N+](=O)[O-])c1=O,-12,12,7%,-10%,1.2,1%,2.9%
O=C(CN1C(=O)NC(Cc2c[nH]c3ccccc23)C1=O)Nc1ccccc1C(F)(F)F (stereo not drawn),0,·,·,-4%,·,·,-4.1%
CC(C)N(c1ccccc1)c1ccc(NC(=O)COC(=O)CCN2C(=O)c3cccc([N+](=O)[O-])c3C2=O)cc1,-27,4,13%,-5%,4.3,-85%[inhibitor],0.7%
Cc1nnc(NC(=O)C2CC(=O)N(Cc3ccccc3)C2)s1 (stereo not drawn),1,-5,15%,10%,·,?,-0.8%
O=C(COC(=O)c1ccc2c(c1)OCO2)Nc1cccc(F)c1,5,-11,·,-2%,·,-32%[inhibitor],-13%
O=[N+]([O-])c1cc(C(F)(F)F)cc([N+](=O)[O-])c1NCCNC(=S)Nc1cccc(F)c1,-13,-4,4%,?,-3.3,-6%,-0.2%
Cc1c(OCC(=O)N2CCN(c3ccccc3)CC2)ccc2c3c(c(=O)oc12)CCCC3,6,6,-2%,-3%,·,-51%,-5.7%
COc1cc(OC)cc(C(=O)NNC(=O)C(CCC(N)=O)NS(=O)(=O)c2ccc(Cl)cc2)c1 (stereo not drawn),7,·,·,13%,·,-63%[inhibitor],-1.5%
COc1ccc(OCCCCc2c(C)n[nH]c2C)cc1,-3,·,·,-9%,·,26%,·
COc1ccc(C)cc1NC(=O)COC(=O)c1c(-c2ccccc2)noc1C,-2,·,·,·,·,2%,4.9%
CC1CC1C(=O)OCC(=O)Nc1cc(S(=O)(=O)N2CCCCC2)ccc1Cl (stereo not drawn),-1,·,·,13%,·,0%,8.0%
CC(CCc1ccco1)NC(=O)Cn1nc(Cc2ccncc2)c2ccccc2c1=O (stereo not drawn),-25,0,-7%,1%,2.7,-9%,-3.2%
O=C1NCCCCC1NC1CC(=O)N(c2ccccc2)C1=O (stereo not drawn),5,-2,0%,-11%,1.1,-35%[inhibitor],-4.4%
CC1=NN(c2ccccc2)C(=O)/C1=C/C=C/c1ccccc1,-16,6,-3%,9%,·,-31%[inhibitor],0.4%
COc1ccc(C2=C(C)C(N3CCN(C(=O)c4ccco4)CC3)=NS2(=O)=O)cc1,4,21,12%,-31%,·,30%,-2.8%
CN=C1CC(C)(C)CC(=O)/C1=C(/O)CCC(=O)NC,10,8,15%,5%,4.3,0%,0.8%
CCN1C(=O)C2C(C1=O)N1C(c3ccccc3)C3C(=O)N(CC)C(=O)C3N1C2c1ccccc1 (stereo not drawn),-2,6,13%,1%,1.0,-13%,-2.1%
O=C(Nc1ccc(N2CCN(Cc3ccccc3)CC2)cc1)c1cccnc1,-3,-30,12%,-8%,2.6,14%,-1.3%
CN(C(=O)c1ccc(NC(=O)Cc2ccc(NC(=O)C3CCCN(C(=O)C4CCCC4)C3)cc2)cc1)C1CC1 (stereo not drawn),0,2,·,5%,·,·,-2.6%
CCOc1ccccc1C1C(C(N)=O)=C(C)Nc2nc(-c3ccccc3Cl)nn21 (stereo not drawn),-9,-3,4%,11%,-0.8,0%,-3.3%&-26%
COc1ccc([N+](=O)[O-])cc1NC(=O)Cc1noc2ccccc12,5,-4,8%,-3%,-11,-9%[15.4 µM],·
O=C(Cn1nnc(-c2ccc(CN3CCOCC3)cc2)n1)N(c1ccccc1)c1ccccc1,0,-6,-4%,·,4.8,-9%[15.4 µM],·
COc1ccc(C(=O)Nc2ccc(-c3ccc(NC(=O)c4ccc(OC)cc4)c(OC)c3)cc2OC)cc1,-9,0,8%,?,2.8,-26%,?
Cc1ccnc(NC(=O)Nc2ccc(F)cc2)c1,1,2,19%,2%,2.0,-27%,-0.9%
COc1cc(/C=N/NC(=O)c2cccnc2)ccc1OC(=O)c1ccc2c(c1)OCO2,2,-3,9%,-8%,2.5,?,8.6%
CCOC(=O)c1cccc(S(=O)(=O)N(CCO)Cc2cc3cc(OC)c(OC)cc3[nH]c2=O)c1,11,16,16%,-17%,2.0,28%,-17%
O=C(NNC(=O)c1ccccc1Br)c1cccc(Cl)c1,-5,-3,-1%,9%,4.7,-49%[inhibitor],-0.3%
CCOC(=O)/C=c1\s/c(=C(\C#N)C(=O)OCC)n(-c2ccccc2)c1=O,4,-1,7%,-6%,24,19%,0.2%
CCc1ccc2oc(-c3cccc(N)c3)nc2c1,-4,-3,1%,-5%,-0.3,-1%[15.4 µM],-1.8%
CCOC(=O)c1c(C)[nH]c(C(=O)N(C)CC(=O)Nc2ccc(OC)cc2)c1C,1,3,·,4%,·,1%,1.1%
CCN1C(=O)[C@H]2[C@H]3CN=C(SCc4ccc(C)cc4)N3[C@@](Cc3ccccc3)(C(=O)OC)[C@H]2C1=O,-6,·,·,-19%,·,·,-2.0%
Cc1ccc(-c2nnc(NC(=O)c3c(F)cccc3Cl)s2)cc1,-19,14,11%,2%,-6.5,-27%,34%
O=C(O)CNC(=O)c1ccc(NC(=O)/C(=C/c2ccccc2)NC(=O)c2ccccc2)cc1,0,-22,5%,10%,0.3,3%,·
COC(=O)[C@]1(C)N[C@H](CN(C)C(=O)C2CCCCC2)[C@@H]2C(=O)N(C)C(=O)[C@@H]21,-23,·,·,8%,·,·,-0.8%
O=C(NCC1CCC(C(=O)O)CC1)c1cccnc1 (stereo not drawn),2,-6,18%,6%,1.2,-1%,-2.0%

# 3 entries from above, arranged by the value under gsp ag, ascending.
smiles | gsp ag
Cc1ccc(-c2nnc(NC(=O)c3c(F)cccc3Cl)s2)cc1 | -27%
CCOC(=O)c1c(C)[nH]c(C(=O)N(C)CC(=O)Nc2ccc(OC)cc2)c1C | 1%
CCOC(=O)c1cccc(S(=O)(=O)N(CCO)Cc2cc3cc(OC)c(OC)cc3[nH]c2=O)c1 | 28%
